# From PubChem BioAssay
# Sa growth 42C – inhibitors of Staphylococcus aureus growth at 42 °C | S. aureus RN4220 growth, OD600, 20 h; stronger effect = lower value | relative growth, % (no concentration beside the values) | 170,000 compounds, 0.53% hits | AID 720641;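 active means growth at 42 °C up to 50% and 20 or more points under that at 30 °C, or under 10% at both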;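 further: 300 nL library stock went into each well; scaled to the means of positive and negative controls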
# GIV Gai3 FP – blocks GIV peptide binding to rat Galpha-i3. P08753. Galpha-i3/FITC-GIV peptide fluorescence polarization, 90 min; stronger effect = lower value; scaled: aluminum fluoride 0%, vehicle 100%. percent of control (FP), % (concentration not given with the values). 210,000 compounds, 0.42% hits. AID 1224905;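 active means replicate mean at 85% of control or lower, very high polarization wells dropped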;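 further: wells of about 15 µL received 100 nL stock; the first replicate is given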
# Target sequence (P08753 whole entry, looked up): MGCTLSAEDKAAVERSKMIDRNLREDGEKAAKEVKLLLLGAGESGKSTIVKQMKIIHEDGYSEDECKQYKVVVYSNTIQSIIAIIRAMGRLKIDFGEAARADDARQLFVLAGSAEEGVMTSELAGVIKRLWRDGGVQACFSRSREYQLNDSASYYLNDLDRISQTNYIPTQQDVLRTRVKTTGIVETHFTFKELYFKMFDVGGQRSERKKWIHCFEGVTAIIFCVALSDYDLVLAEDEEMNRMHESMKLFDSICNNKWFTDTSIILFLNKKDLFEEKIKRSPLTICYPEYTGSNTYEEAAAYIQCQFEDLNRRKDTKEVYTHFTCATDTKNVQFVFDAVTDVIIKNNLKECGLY
# HCMV UL50-53 inh – cytomegalovirus nuclear egress complex inhibition | HTRF UL50-UL53 interaction, normalized percent inhibition | inhibition, % (test concentration not listed) | 190,000 compounds, 0.15% hits;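 active means both replicates at 50% or more, plus weaker picks with an unusually low signal ratio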;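 further: stock transfer was 100 nL into about 20 µL; 0% = negative control wells and 100% = wells with untagged competitor protein; inactives centre near -12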
# Sa growth 42C second temp – further read-out of Sa growth 42C, marked with its call; relative growth, %; measured here: growth at 30 °C;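 optical density after 20 h as mean of two plates; 100% = untreated growth and lower means inhibition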
# * = called active by the depositor; . = not tested or not shown; & = joins results of further samples.
1) Cc1ccc(/C=N/n2cnnc2)c(C)c1
2) CN(C)c1ccc(/C=N/S(=O)(=O)c2cccs2)cc1
3) CCOC(=O)c1c(S(=O)(=O)Nc2ccc(Cl)cc2)c(C)n(-c2ccccc2)c1C
4) CN(C)/N=C/c1ccc(C(O)(c2nc3ccccc3s2)C(F)(F)F)o1 (stereo unspecified)
5) c1cc(CSC2=NCCS2)nc(CSC2=NCCS2)c1
6) CC1CCCC(C)N1C(=O)COC(=O)C1CCCCC1 (stereo unspecified)
7) CC(C(=O)N1CCCCC1)N(C)CC(=O)Nc1ccc(Cl)c(C(F)(F)F)c1 (stereo unspecified)
8) CCC(CC)C(=O)OCc1cc(=O)n2nc(C3CC3)sc2n1

assay / entry	1	2	3	4	5	6	7	8
Sa growth 42C	132	92	108	102	86	95	114	87
Sa growth 42C second temp	81	80	86	90	91	92	100	76
GIV Gai3 FP	.	99	103	.	101	.	.	119
HCMV UL50-53 inh	-17	-24	.	-28	-46	-3	18	.

9) COc1ccc(Cl)cc1NC(=O)C1CCCN(c2cc(C)nc3ncnn23)C1 (stereo unspecified)
10) CC(c1ccccc1)C1C(C#N)=C(N)Oc2n[nH]c(-c3ccccc3)c21 (stereo unspecified)
11) O=C(CC12CC3CC(CC(C3)C1)C2)NO
12) COc1ccccc1CN1CCC(CNC(=O)c2cnn(-c3ccccc3Cl)c2C2CCN(C(=O)OC(C)(C)C)CC2)CC1
13) Cc1[nH]c2ccc(OC(F)(F)F)cc2c1CCNC(=O)C1CC=CCC1C(=O)OC(C)C (stereo unspecified)
14) O=C(Oc1ccc(-c2nnco2)cc1)c1ccccc1OC(F)F
15) O=C(O)CCNc1nc(-c2ccccc2)c2cc(Br)ccc2n1
16) CCOC(=O)c1c(/C=C2\C(=O)Nc3ccccc32)c(C)n(-c2ccccc2)c1C

assay / entry	9	10	11	12	13	14	15	16
Sa growth 42C	103	72	94	115	93	84	77	55
Sa growth 42C second temp	73	40	90	79	80	78	88	53
GIV Gai3 FP	104	.	.	106	.	.	101	101
HCMV UL50-53 inh	8	-8	-20	.	-7	-35	.	-25

17) CC1=NN(c2cccc3ccccc23)C(=O)C1
18) CC(=O)N1CCN(C(=O)COc2ccc(NC(=O)c3ccccc3)cc2)CC1
19) N#Cc1sc2ncc3c(c2c1N)CCCC3
20) CCCCNC(=O)c1cc(C)nc2ccccc12
21) OC1C=COC2COC(c3ccccc3)OC12 (stereo unspecified)
22) CCOC(=O)C1=C(C)NC(SCC(N)=O)=C(C#N)C1c1cccc([N+](=O)[O-])c1 (stereo unspecified)
23) COc1cccc(-n2c(=O)c3c4c(sc3n(Cc3ccccc3C#N)c2=O)CCCC4)c1
24) S=C(/C(=C/N1CCOCC1)c1ccccc1)N1CCOCC1

assay / entry	17	18	19	20	21	22	23	24
Sa growth 42C	100	93	117	96	89	.	91	103
Sa growth 42C second temp	46	93	104	100	93	.	93	81
GIV Gai3 FP	97	.	104	.	97	105	100	105
HCMV UL50-53 inh	30	-4	-62	-12	-6	-33	3	.

# The last 2 compounds of the section above open the next one.
23) COc1cccc(-n2c(=O)c3c4c(sc3n(Cc3ccccc3C#N)c2=O)CCCC4)c1
24) S=C(/C(=C/N1CCOCC1)c1ccccc1)N1CCOCC1
25) CCC1(C)Cc2c(sc3[nH]c(=S)n(-c4ccc(OC)cc4)c(=O)c23)CO1 (stereo unspecified)
26) CCN(CC)c1ncc2c(SCC(N)=O)nc(SCC(N)=O)nc2n1
27) O=C(CSc1nc(=O)[nH]c2c1CCCC2)NCc1ccccc1
28) CC1(C)CC(=O)C2=C(C1)OC1=C(C(=O)CC(C)(C)C1)C2c1cccc(F)c1
29) CCCn1cc(S(=O)(=O)c2cc(C)ccc2C)c(=O)c2cc(F)c(N3CCCCCC3)cc21
30) CC1=C(C(=O)OC2CCCN(C)C2)C2(O)C(=O)c3ccccc3C2(O)N1 (stereo unspecified)
31) COC(=O)CN(c1ccccc1Cl)S(C)(=O)=O
32) Oc1ccc(C=NCc2ccco2)cc1

assay / entry	23	24	25	26	27	28	29	30	31	32
Sa growth 42C	91	103	.	93	111	.	102	92	94	88
Sa growth 42C second temp	93	81	.	92	86	.	103	85	103	102
GIV Gai3 FP	100	105	106	104	96	105	105	100	109	98
HCMV UL50-53 inh	3	.	-11	-32	.	-19	.	-22	-16	0

33) Nc1cccnc1N1CCOCC1
34) Cn1ncc(Br)c1NC(=O)C(C)(C)C
35) COc1ccccc1C(=O)Nc1nc2ccccc2n1CCOc1ccccc1
36) Cc1ccc(C(=O)NC(NCc2ccco2)(C(F)(F)F)C(F)(F)F)cc1
37) O=C(CN1C(=O)c2ccccc2C1=O)Nc1cccnc1
38) O=C(Nc1ccc2c(c1)OCO2)C1CCN(c2ccc(-c3ccc(F)cc3)nn2)CC1
39) CCOC(=O)C1CCN(c2ccccc2CN2CCCc3cc(C)ccc32)CC1
40) CC1(C(=O)NC2CCCCC2)Cn2c(ccc2-c2ccccc2)C(=O)N1CCCN1CCCC1=O (stereo unspecified)

assay / entry	33	34	35	36	37	38	39	40
Sa growth 42C	87	108	1.0*	114	104	.	114	.
Sa growth 42C second temp	89	87	1.7*	87	92	.	72	.
GIV Gai3 FP	100	102	102	102	105	101	99	104
HCMV UL50-53 inh	-11	-11	-14	-11	-40	-35	-37	-21

# Compound profiles, from the list above:
# `COc1ccccc1C(=O)Nc1nc2ccccc2n1CCOc1ccccc1` as listed: Sa growth 42C: 1.0*; Sa growth 42C second temp: 1.7*; GIV Gai3 FP: 102; HCMV UL50-53 inh: -14
# `O=C(CN1C(=O)c2ccccc2C1=O)Nc1cccnc1` as listed: Sa growth 42C: 104; Sa growth 42C second temp: 92; GIV Gai3 FP: 105; HCMV UL50-53 inh: -40

# (continued)
41) N#Cc1c(Nc2ccccc2)sc(C(=O)c2cccs2)c1N
42) O=C(c1cnc(N2CCCC2)nc1)N1CCCC1
43) COc1ccc(C2=NC(=O)/C(=C\c3cccc(F)c3)O2)cc1
44) COc1cccc(CNC(=O)c2ccc(CSc3nc4ccncc4n3Cc3ccc(C)cc3)cc2)c1
45) C=CCn1c(COc2cccc(C)c2)nnc1SCC(=O)N1CCNC1=O
46) CCOC(=O)C1CCCN(C(=O)c2ccc(C)c(NC(=O)c3nsc4ccccc34)c2)C1 (stereo unspecified)
47) Cc1ccc(-c2nn(-c3ccccc3)cc2/C=C/C(=O)OCC(N)=O)o1
48) Cc1cc(-c2ccc(C)c(S(=O)(=O)Nc3ccc(C)c(F)c3)c2)n[nH]1

assay / entry	41	42	43	44	45	46	47	48
Sa growth 42C	89	98	100	.	106	111	62	.
Sa growth 42C second temp	77	91	94	.	99	99	93	.
GIV Gai3 FP	105	105&101	105	104	.	110	.	109
HCMV UL50-53 inh	-26	-34	.	-19	-15	.	-14	-7

49) Cc1cccc(C)c1Nc1c(-c2ccc(N3CCOCC3)cc2)nc2ncccn12
50) O=C(Nc1nonc1NC(=O)c1ccccc1)c1ccccc1
51) CSc1nnnn1-c1ccc(C(N)=O)cc1
52) Cc1onc(-c2ccccc2Cl)c1C(=O)N1CC(C)CC(C)C1 (stereo unspecified)
53) Clc1cccc(CN2CCN(Cc3ccco3)CC2)c1
54) COC(=O)CC1C(=O)NCCN1C(=O)Nc1ccccc1 (stereo unspecified)
55) COc1cccc(-c2ccc(-c3noc(-c4cccnc4)n3)c(OC)n2)c1
56) O=C(CN1CCCc2ccccc21)Nc1ccc(Cl)c(Cl)c1

assay / entry	49	50	51	52	53	54	55	56
Sa growth 42C	105	56	111	108	116	88	107	89
Sa growth 42C second temp	77	20	101	83	84	80	95	105
GIV Gai3 FP	131&168	113	100	103	.	104	105	.
HCMV UL50-53 inh	-24&-69	-7	-4	.	-12	.	-20	-11

57) CCOC(=O)C(C)(C)Sc1nc2c(cnn2-c2ccc(Cl)cc2)c(=O)[nH]1
58) NC(=O)N/N=C/c1c(F)c(F)c(F)c(F)c1F
59) C=C1N(c2ccccc2C)C(=O)OC1(C)C
60) CCN(CC)S(=O)(=O)c1ccc(NC(=O)COC(=O)Cn2[nH]c(=O)c3ccccc3c2=O)cc1
61) OP(Oc1ccccc1)(Oc1ccccc1)=P(O)(Oc1ccccc1)Oc1ccccc1
62) Cc1ccc(Cl)cc1-n1ncc2c(NCC3CCCO3)ncnc21 (stereo unspecified)
63) CC1CCCN(C/C(O)=C(\C#N)c2nc3ccccc3[nH]2)C1 (stereo unspecified)
64) CCN(CC)C(=O)CSc1n[nH]c(=S)s1

assay / entry	57	58	59	60	61	62	63	64
Sa growth 42C	104	109	101	82	108	.	120	106
Sa growth 42C second temp	98	96	101	87	89	.	94	76
GIV Gai3 FP	97	.	106	.	101	99	104	.
HCMV UL50-53 inh	.	-3	-5	-35	-14	-9	-21	1

65) Cc1ccccc1NC(=O)CSc1nc(-c2ccco2)nc2cc(=O)[nH]n12
66) CC1CCC(=C(C#N)C(=O)NCc2ccccc2)CC1 (stereo unspecified)
67) COc1ccc(C)cc1N1C(=O)c2ccncc2C1=O
68) COc1ccc(NC(=O)c2cccc(NC3=NC4CS(=O)(=O)CC4S3)c2)cc1Cl (stereo unspecified)
69) Fc1ccc(-c2noc3ncnc(NCc4ccc(Cl)cc4)c23)cc1
70) Cc1ccc(CNC(=O)C2C3C=CC4(CN(Cc5cccs5)C(=O)C24)O3)cc1 (stereo unspecified)
71) CC(=O)Nc1ccccc1Br
72) Cn1c(NN)nc2c(c1=O)C1(CCCC1)Cc1ccccc1-2

assay / entry	65	66	67	68	69	70	71	72
Sa growth 42C	77	97	.	.	89	93	88	102
Sa growth 42C second temp	88	97	.	.	90	79	86	109
GIV Gai3 FP	99	.	101	101	104	99	104	103
HCMV UL50-53 inh	.	2	-28	-31	.	.	-31	-45

73) Cc1cc(NC(=O)c2ccc(-c3ccc(Cl)cc3)o2)cc(-c2nc3ncccc3o2)c1O
74) NC(=S)Nc1ccc(OCc2ccccc2)cc1
75) C=CCN(CC=C)Cc1c(C)[nH]c2ccccc2c1=O
76) COC(=O)c1ccc(OC(=O)COC(=O)CN2C(=O)c3ccccc3C2=O)cc1
77) COc1ccc2c(c1)c(CC(=O)Nc1cc(C)c(OC)c(C)c1)c(C)n2C(=O)c1ccc(Cl)cc1
78) OCCNC12CC3CC(CC(C3)C1)C2
79) CCCn1c(=O)c2ccccc2n2c(Sc3nnnn3-c3ccccc3)nnc12
80) CCCN1CCN(C(=O)c2ccc(-n3c(-c4ccccc4)nc4cccnc43)cc2)CC1

assay / entry	73	74	75	76	77	78	79	80
Sa growth 42C	99	98	95	97	111	91	108	95
Sa growth 42C second temp	86	95	87	83	92	91	93	92
GIV Gai3 FP	107	.	.	.	106	.	.	116
HCMV UL50-53 inh	-15	-8	46	-17	-10	-12	16	-10

81) COC(=O)c1ccc(-c2nc(-c3ccccc3)cs2)cc1
82) CN1C(C(=O)NCC2CCCO2)=CC(c2ccco2)=NS1(=O)=O (stereo unspecified)
83) O=C(Cn1c(=O)n2nc(-c3ccccc3)nc2c2ccccc21)c1ccc(Br)cc1
84) CC(=O)NC1=NC(=O)CS1
85) COc1ccc(N2CC(NC(=O)COc3ccc4ccccc4c3)CC2=O)cc1 (stereo unspecified)
86) CCOC(=O)c1c[nH]c(=S)n1C
87) c1ccc(CSc2nnc3n(CCOc4ccccc4)c4ccccc4n23)cc1
88) CCOc1ccc(C(N)=S)cc1OC

assay / entry	81	82	83	84	85	86	87	88
Sa growth 42C	.	80	106	86	98	92	102	77
Sa growth 42C second temp	.	89	94	80	83	93	37	86
GIV Gai3 FP	103	102	102&99	98	98	105	105	.
HCMV UL50-53 inh	-7	-81	0	-22&-14	.	-7	.	-26

89) COc1ccc(C2C=C(c3ccc(C)cc3)Nc3c(C(=O)Nc4ccccc4)cnn32)cc1 (stereo unspecified)
90) Cc1ccc(NC(=O)CN2C(=O)COc3ccc(S(=O)(=O)N4CCOCC4)cc32)cc1N(C)C
91) Cc1ccc(OCCCCn2c(-c3ccc(Cl)cc3)nc3ccccc3c2=O)cc1
92) CN1C(=O)C(C)(C)c2cc(S(=O)(=O)N3CCN(c4ccc(Cl)cc4)CC3)ccc21
93) CCSC1=C(C#N)C(c2ccc(Cl)cc2)C(C(=O)OC(C)(C)C)=C(C)N1 (stereo unspecified)
94) CC(NC(=O)CSc1ccccc1)c1ccc(S(N)(=O)=O)cc1 (stereo unspecified)
95) c1coc(C(CNc2ncnc3sc4c(c23)CCC4)N2CCCCC2)c1 (stereo unspecified)
96) Cc1ccc(NC(=O)/C=C/c2ccc(Cl)cc2)c(Br)c1
97) CCOC(=O)Cc1csc(-c2ncc(C(F)(F)F)cc2Cl)n1

assay / entry	89	90	91	92	93	94	95	96	97
Sa growth 42C	95	139	98	.	87	102	88	91	93
Sa growth 42C second temp	94	101	91	.	90	103	94	92	92
GIV Gai3 FP	-67*	107	102	108	.	.	.	101	101
HCMV UL50-53 inh	.	.	-23	9	0	-4	-6	.	-54

# Random draw from the library; about 0.83% have a hit in one of these screens.
